# Compound activity deposited in PubChem by several laboratories.
# PKD1 inh: inhibitors of human PKD1 kinase, biochemical, fluorescence polarization; PKD1 kinase fluorescence polarization assay; inhibition, %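 (about 10 µM by stock and volumes)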; hit rate 0.056% among 200,000;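 active means inhibition of 50% or more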;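 further: controls were vehicle for no effect and a reference inhibitor for full effect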
# INS promoter inh: inhibitors of insulin promoter-driven GFP, primary screen, imaging, TRM-6 cells (human fetal islet line), eGFP reporter, cell count; reporter expression induced with tamoxifen; inhibition, % at 2 µM; hit rate 0.9% among 130,000; AID 1273, 2008;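 active means inhibition above the mean plus 3 SD, with well images judged a real hit on visual review, cut at about 60% in these data, passing the limit was not always enough; inconclusive means inhibition over the cutoff but images rejected on review; inactive means inhibition not above the cutoff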
# GALR2 ag: GALR2 receptor agonists, primary screen, cell-based. GALR2-expressing cells, agonist activation read-out. activation, %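 (tested at 5 µM)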. hit rate 0.48% among 140,000. Galanin receptor type 2 (Homo sapiens), O43603;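 active means above mean plus 3 SD of all compounds, about 5% in these data, not always enough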;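 further: 0% = vehicle buffer wells and 100% = reference agonist at full effect; tested in CHO reporter cells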
# Target sequence (O43603 whole entry, looked up): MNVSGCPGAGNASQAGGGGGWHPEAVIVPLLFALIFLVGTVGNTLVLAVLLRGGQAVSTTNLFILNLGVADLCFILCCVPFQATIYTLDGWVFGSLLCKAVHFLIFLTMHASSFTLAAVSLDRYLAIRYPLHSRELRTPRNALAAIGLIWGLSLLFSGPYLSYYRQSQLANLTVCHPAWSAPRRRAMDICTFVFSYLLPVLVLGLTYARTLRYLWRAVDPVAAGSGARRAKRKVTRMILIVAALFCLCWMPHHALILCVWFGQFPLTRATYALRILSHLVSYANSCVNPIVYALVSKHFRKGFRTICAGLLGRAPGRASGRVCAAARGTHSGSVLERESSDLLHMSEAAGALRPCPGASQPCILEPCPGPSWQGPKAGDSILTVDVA
# HSV augment: enhancers of HSV replication in host cells, fold increase, host cell viability. HSV replication augmentation in cells. AID 1956, 2009. maximum fold increase. hit rate 0.005% among 220,000;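 active means peak rise of 1.5-fold or more in the series; inconclusive means self-fluorescent or not available for retest; tested in PC3 cells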;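 further: first round at 10 µM; read as green reporter fluorescence; hits show the peak of a series up to 25 µM; 1 = signal of infected wells without compound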
# RGS16-Gao: modulators of RGS16 binding to Galphao, primary screen, biochemical, human proteins, multiplexed bead flow cytometry. Regulator of G-protein signaling 16 (Homo sapiens) + Guanine nucleotide-binding protein …. bead-based flow cytometry RGS16-Galphao binding, fluorescence; actives lie on both sides. binding response (% of control), % at 10 µM. hit rate 0.38% among 220,000. AID 1441, 2008;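 active means below 25% or above 175%, edge rows of some plates excepted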;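 further: Galphao activated by GDP with aluminum fluoride before binding; 100% = wells without compound and 0% = beads without RGS; some results beyond the cut were filed as inactive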
# Target sequence (O15492 whole entry, looked up): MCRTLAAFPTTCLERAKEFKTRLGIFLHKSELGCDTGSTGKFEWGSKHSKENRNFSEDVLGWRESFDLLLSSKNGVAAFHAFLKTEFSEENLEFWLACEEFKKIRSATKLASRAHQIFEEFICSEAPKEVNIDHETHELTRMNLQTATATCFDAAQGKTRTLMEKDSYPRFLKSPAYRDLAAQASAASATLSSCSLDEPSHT
# Target sequence (P09471 whole entry, looked up): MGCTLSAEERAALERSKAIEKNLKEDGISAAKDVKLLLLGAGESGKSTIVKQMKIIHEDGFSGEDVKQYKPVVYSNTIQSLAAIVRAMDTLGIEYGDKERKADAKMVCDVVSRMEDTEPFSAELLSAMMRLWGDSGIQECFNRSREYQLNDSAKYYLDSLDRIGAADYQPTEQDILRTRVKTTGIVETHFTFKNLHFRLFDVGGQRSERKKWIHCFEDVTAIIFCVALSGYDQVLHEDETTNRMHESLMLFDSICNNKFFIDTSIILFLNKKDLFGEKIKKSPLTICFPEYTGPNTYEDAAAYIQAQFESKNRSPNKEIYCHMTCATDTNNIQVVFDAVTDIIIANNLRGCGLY
# INS promoter inh cell count: also measured in INS promoter inh; calls as there; normalized cell count, %; measured here: cell count, toxicity; reference of the scale not given here;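 cells exposed to compound for 48 h; stained nuclei by imaging scaled within each plate; lower means fewer cells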
# HSV augment primary fold: second read-out of HSV augment, no call of its own (marks repeat the call); fold increase; compound at 10 µM; measured here: primary screen fold increase 10 uM; tested in PC3 cells;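 GFP signal in the first replicate; 1 = infected wells without compound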
# Active calls of the source: *; i = inactive; ? = inconclusive; nt = no result given.
SMILES,PKD1 inh,INS promoter inh,INS promoter inh cell count,GALR2 ag,HSV augment,HSV augment primary fold,RGS16-Gao
CC(=O)c1ccc(OCC(=O)NCC(c2ccco2)N2CCCCC2)cc1 (configuration not stated),5,nt,nt,nt,i,1.1,76
CC(=O)OCc1c(F)c(F)c(-n2nc(C)cc2C)c(F)c1F,6,-9,105,-2.9,i,0.89,102
Cc1c(Cc2c(Cl)cccc2Cl)c(=O)ccn1C(C)c1ccccc1 (configuration not stated),0,-23,52,0.5,i,1.2,101
O=C(CSc1nnc(-c2ccc(Cl)cc2)n1-c1ccccc1)N/N=C/c1ccccc1C(=O)O,5,nt,nt,nt,i,0.8,103
CS/C(N)=N/C(=S)Nc1cccc(Cl)c1,nt,nt,nt,nt,i,0.96,98
O=C(CCc1ccccc1)NCc1ccccn1,0,23,85,-0.2,i,0.98,125
O=C1c2ccccc2C(=O)N1CCCP(=O)(O)CCc1ccccc1,2,nt,nt,-1.4,i,1,87
Cc1ccc(/C=C2\SC(=S)N(CC(=O)Nc3cccnc3)C2=O)cc1,1,60,106,nt,i,0.96,90
CCN(CC)CCCNCC(=O)Nc1cc(C)on1,0,nt,nt,nt,i,1,106
O=[N+]([O-])c1ccc2nc(-c3ccccc3)[nH]c2c1,4,44,186,-1.9,i,0.94,106
N#C/C(=C/c1cn[nH]c1-c1ccc(Br)cc1)C(=O)O,-5,-18,118,nt,i,1.1,109
COc1ccccc1-n1c(CNC(=O)c2ccco2)nnc1SCC(=O)Nc1cc(C)ccc1C,-15,-79,116,-1.4,nt,nt,94
C[C@@H](C(=O)Nc1ccc2ccccc2c1)[C@@H]1C[C@@]1(C)[C@@H](NC(=O)c1ccccc1)c1ccccc1,-5,45,119,-1.4,i,1,111
S=C(c1cn(CCOc2cccc3ccccc23)c2ccccc12)N1CCCC1,-5,-17,69,-1.8,i,0.98,97
CCOC(=O)c1ccc(S(=O)(=O)Nc2cc(C(=O)O)ccc2Cl)cc1,2,nt,nt,nt,i,1,97
O=C(c1ccccc1)N1CCC(c2nc3c(nnn3Cc3ccccc3Cl)c(=O)[nH]2)CC1,0,0,161,0.0,i,0.68,90
CCOC(=O)c1cnc(-n2nc(C)cc2C)nc1Nc1cccc(C(=O)O)c1,5,57,57,-0.4,i,1,93
CCOC(=O)c1cc(NC(=O)c2ccccc2)c(=O)oc1-c1ccccc1,-10,59,113,-2.8,i,0.94,100
CCOc1ccc(NC(=O)N(C2CCCCCC2)C2CCN(C(C)=O)CC2)cc1,-5,nt,nt,-1.2,i,0.91,104
O=C(NC(C(=O)c1ccccc1)N1CCOCC1)c1ccccc1 (configuration not stated),-9,16,111,-0.8,i,0.77,134
O=C(CC1(O)C(=O)Nc2ccccc21)c1ccccc1O (configuration not stated),7,-14,98,-2.5,i,1.1,100
O=C(Nc1cc(Cl)ccc1O)c1snnc1-c1ccccc1,-7,14,79,0.2,i,0.85,101
Cc1nn(CC(=O)N2CCc3ccccc3C2)c(C)c1[N+](=O)[O-],-11,nt,nt,nt,i,0.88,106
CCO[C@@H]1OC(C(=O)N2CCOCC2)=C[C@H](C)[C@H]1CCCO,8,nt,nt,nt,i,0.81,102
CC(Sc1ccccc1)C(=O)Nc1cccc(N(C)S(C)(=O)=O)c1 (configuration not stated),-3,-44,144,-0.8,nt,nt,103
CC(C)Sc1nnc([C@H](Cc2ccccc2)NC(=O)OC(C)(C)C)o1,nt,nt,nt,nt,i,1.1,101
Cc1nc(Sc2nnnn2C)c2c3c(sc2n1)CCC3,3,nt,nt,-1.4,i,0.66,102
Cc1cc(=O)oc2cc(OC(C)C(=O)Nc3nccs3)ccc12 (configuration not stated),-6,-257,72,-1.1,i,0.79,101
O=C(Nc1ccccc1)C1=C[C@H](c2ccc(Br)cc2)C[C@H](OCc2ccc(CO)cc2)O1,2,nt,nt,nt,i,1.1,109
O=C(Cn1cc(C(F)(F)F)cc(Cl)c1=O)Nc1cccc(Cl)c1,-4,-36,43,-0.6,i,1,105
CCOc1ccc(N2C(=O)CC(n3ccc(C)n3)C2=O)cc1 (configuration not stated),-4,-30,123,-4.2,i,0.98,95
O=C(CSc1n[nH]c(=O)[nH]c1=O)NC1CC1,-2,nt,nt,nt,i,0.99,90
O=C(CN1C(=O)NC2(CCCCC2)C1=O)NCc1ccc2c(c1)OCO2,2,nt,nt,nt,i,0.92,101
COc1cc(C(=O)N2CCN(C/C=C/c3ccccc3)CC2)cc(OC)c1C,-4,-38,51,-2.8,i,0.81,111
Cc1cccc(OCc2nnc(N)s2)c1,-10,-33,113,-4.2,i,0.93,103
COc1cc(C(=O)NCc2cccc3ccccc23)ccc1OCc1ccccc1,-3,-11,86,-0.8,i,0.88,103
Cc1cc(C)nc(NS(=O)(=O)c2ccc(NS(=O)(=O)c3ccsc3)cc2)n1,nt,nt,nt,nt,i,0.84,90
CCOC(=O)C1=NN(C(=O)COc2ccccc2)C(O)(c2ccc(Br)cc2)C1 (configuration not stated),-8,nt,nt,nt,i,0.96,182
CCOC(=O)CN1C(=O)C(Sc2nnc(-c3ccccc3OC)s2)CCc2ccccc21 (configuration not stated),-1,nt,nt,-2.5,nt,nt,nt
Cc1cc(C)nc(N2CCC(C(=O)N3CCN(c4cc(Cl)ccc4C)CC3)CC2)n1,-4,0,116,-1.5,i,0.8,95
Cc1ccc(N2C(=O)CC3(CCCC3)CC2=O)cc1,nt,nt,nt,nt,i,1.2,98
C[n+]1cc(C(=O)N2CCCCC2)ccc1/C=C/c1c[nH]c2ccccc12,-7,nt,nt,nt,?,nt,107
c1ccc(Oc2cnc3ccccc3n2)cc1,5,-24,146,1.1,i,0.81,95
O=C(Nc1nc2c(ccc3ccccc32)s1)c1cc([N+](=O)[O-])ccc1N1CCOCC1,-3,nt,nt,nt,i,0.9,103
COc1ccc(-c2nc(C#N)c(N3CCCCCC3)o2)cc1,0,0,66,0.2,i,0.99,95
COC(=O)C1=C(C)OC(N)=C(C#N)C1c1cc2cc(C)ccc2nc1Cl (configuration not stated),-7,nt,nt,nt,i,1,101
O=C(c1cccc(N2CCCC2=O)c1)N1CCN(c2ccccc2)CC1,-10,-6,149,-0.8,i,0.77,100
O=S(=O)(c1ccc(N=C2NN=C(c3cc(F)ccc3F)CS2)cc1)N1CCOCC1,0,33,108,nt,i,1,95
Cc1cccc(NC(=O)CN2C(=O)NC(C)(c3ccc4c(c3)OCO4)C2=O)c1 (configuration not stated),5,-54,56,-0.6,i,0.99,i
COc1ccc(NC(=O)CSc2nc(O)cc(=O)[nH]2)c(OC)c1,nt,nt,nt,nt,i,0.96,99

# Retrieved by compound from the list above, 6 records:
SMILES,PKD1 inh,INS promoter inh,INS promoter inh cell count,GALR2 ag,HSV augment,HSV augment primary fold,RGS16-Gao
Cc1cccc(NC(=O)CN2C(=O)NC(C)(c3ccc4c(c3)OCO4)C2=O)c1 (configuration not stated),5,-54,56,-0.6,i,0.99,i
C[n+]1cc(C(=O)N2CCCCC2)ccc1/C=C/c1c[nH]c2ccccc12,-7,nt,nt,nt,?,nt,107
O=C(c1cccc(N2CCCC2=O)c1)N1CCN(c2ccccc2)CC1,-10,-6,149,-0.8,i,0.77,100
O=C(Nc1nc2c(ccc3ccccc32)s1)c1cc([N+](=O)[O-])ccc1N1CCOCC1,-3,nt,nt,nt,i,0.9,103
COC(=O)C1=C(C)OC(N)=C(C#N)C1c1cc2cc(C)ccc2nc1Cl (configuration not stated),-7,nt,nt,nt,i,1,101
COc1ccc(-c2nc(C#N)c(N3CCCCCC3)o2)cc1,0,0,66,0.2,i,0.99,95

# Later entries.
SMILES,PKD1 inh,INS promoter inh,INS promoter inh cell count,GALR2 ag,HSV augment,HSV augment primary fold,RGS16-Gao
COc1ccc([N+](=O)[O-])cc1N(CC(O)Cn1nnc2ccccc21)S(=O)(=O)c1ccc(C)cc1 (configuration not stated),1,-53,168,-3.5,i,0.91,102
CCCCNC(=O)Nc1nc2ccccc2s1,-7,nt,nt,nt,i,1,100
Cc1cc(C)n(S(=O)(=O)c2ccc(C(C)(C)C)cc2)n1,-5,14,91,-0.4,i,1.2,103
COc1ccccc1-c1ccc(NC2CCCCC2)nn1,3,nt,nt,-1.3,i,0.77,179
Oc1ccc(Br)cc1C=Nc1ccc(Cl)cc1,-1,-18,52,nt,i,1.1,168
COc1ccccc1NC(=S)NCCC(c1ccccc1)c1ccccc1,-3,nt,nt,0.7,i,0.93,107
CCOC(=O)C1CCCN(c2c(NCCc3ccc(Cl)cc3)c(=O)c2=O)C1 (configuration not stated),nt,nt,nt,nt,i,1,101
CCOC(=O)c1[nH]c2ccc(F)cc2c1NC(=O)CN1CCN(C/C=C/c2ccccc2)CC1,-13,nt,nt,0.1,nt,nt,102
CC1CCN(C(c2cccs2)c2nnnn2Cc2ccccc2)CC1 (configuration not stated),-2,-83,98,-0.8,i,1.1,99
CC(=O)Nc1ccc2nc3ccccc3nc2c1,nt,nt,nt,nt,i,1,100
N#CCCCn1c(-c2ccccc2)noc1=O,-8,nt,nt,-0.6,i,1,106
Cc1ccc(Cl)cc1N1CCN(S(=O)(=O)c2cnc[nH]2)CC1,-2,nt,nt,-2.0,i,1.1,99
CCN(C(=O)c1cnc2scc(C)n2c1=O)c1ccccc1C,1,nt,nt,-0.2,i,1.1,97
CCCn1c(CC)nc([N+](=O)[O-])c1S(=O)(=O)c1ccccc1,0,30,95,-2.2,i,0.86,98
CC(=O)Nc1ccc(S(=O)(=O)NCCNC(=O)c2ccccc2F)cc1,9,-16,162,-0.4,i,0.99,105
CCc1cccc(C)c1NC(=S)NCCc1c(C)[nH]c2ccc(C)cc12,-6,-22,106,-2.4,i,0.84,88
COC(=O)C1=CNC=C(C(=O)OC)C1c1cccc(OC)c1,-9,-33,136,2.6,i,1.2,104
CCOc1ccc(S(=O)(=O)N2CCc3ccccc3C2)cc1,-8,nt,nt,-1.8,i,0.89,104
CSCCC1NC(=O)N(C(C)C(=O)Nc2cc(Cl)cc(Cl)c2)C1=O (configuration not stated),1,-42,76,nt,i,0.94,102
CCN(CC)S(=O)(=O)c1ccc(C)c(NC(=O)CN(C)C)c1,9,nt,nt,-0.2,i,1,185
CCCCOc1ccc(C2CCC(C(C)=O)C(C)C2)cc1 (configuration not stated),nt,nt,nt,nt,i,1,111
COC(=O)C1=C(O)/C(=C\c2cc(C)n(-c3ccccc3F)c2C)N=C1C,-2,nt,nt,nt,i,1.2,101
CC(C)CCC(CCN1CCCC1)c1ccc2c(c1)OCO2 (configuration not stated),nt,nt,nt,nt,i,0.91,107
CCOC(=O)c1oc2ccc(S(=O)(=O)Nc3ccc4c(c3)n(C)c(=O)n4C)cc2c1C,-8,-6,91,-0.1,i,0.65,101
Nc1c(N(C(=O)Nc2ccc(Cl)c(Cl)c2)C2CCCC2)c(=O)[nH]c(=O)n1Cc1ccccc1,-10,2,63,-2.2,nt,nt,109
Cc1ccc(-n2nc(C)c3c2OC(N)=C(C#N)C3c2ccccc2F)cc1 (configuration not stated),-7,32,105,-3.3,i,0.97,104
O=C(NCCSc1ccc(Cl)cc1)c1ccc(CN2CCOCC2)cc1,-3,-76,175,nt,i,0.94,104
COc1ccc(OCCNC(=O)c2cccc(Oc3ccc(C(F)(F)F)cc3[N+](=O)[O-])c2)cc1,6,-10,84,-1.1,i,0.93,101
CCOC(=O)C1C(=O)OC(C)(C)C1C(CC)C(=O)c1c(C)cc(C)cc1C (configuration not stated),nt,nt,nt,nt,i,0.94,107
COC(=O)CSc1nc2cc(OC)ccc2n1C,nt,nt,nt,nt,i,1.1,101
O=c1[nH]cnc2scc(-c3cccs3)c12,2,-66,111,-2.4,i,0.92,104
CNS(=O)(=O)c1cccc(C(=O)OCC(=O)N(CCC#N)c2ccccc2)c1,10,nt,nt,nt,i,1,99
O=C(NCc1ccccn1)C1CCN(S(=O)(=O)c2cc(Cl)ccc2Cl)CC1,-6,18,68,nt,i,0.93,104
O=C(Cc1ccccc1)NCc1nc2ccccc2[nH]1,-8,-61,79,-1.0,i,0.88,nt
CCc1onc(C)c1C(=O)Nc1ccc2c(c1)OCO2,-3,nt,nt,nt,i,0.95,102
Cc1nnc(SCC2=C(C(=O)O)N3C(=O)C(NC(=O)Cn4nc(C(F)F)cc4C)C3SC2)s1 (configuration not stated),-5,nt,nt,nt,i,0.9,100
CN(C)S(=O)(=O)c1cccc(NC(=O)COC(=O)c2ccc([N+](=O)[O-])o2)c1,-2,16,106,-0.8,i,1,106
